CDC25B CDK2 inh: primary biochemical HTRF screen for blockers of M-phase inducer phosphatase 2 binding to CDK2/cyclin A; P30305+P24941; HTRF CDC25B-CDK2/CyclinA binding, anti-His/anti-Flag; hits give high values; z-score (test concentration not listed); 0.72% of 94,000 active;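 further: score is relative to mean and SD of negative controls; strong numbers were not always called active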
TAR Tat displ: TAR RNA-Tat peptide displacers, HIV-1, primary screen, biochemical, FRET, FAM/TAMRA-labeled Tat; 0.6% of 100,000 active; HIV-1 TAR RNA, Tat peptide displacement FRET; hits give high values; z-score (concentration not given with the values); AID 1259389, 2018;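 further: score is relative to mean and SD of negative controls; some compounds called inactive have numbers as strong as hits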
* hit, by the source's call; · = not tested or not shown.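 How the source made its calls: active means z-score from 3 up in half or more of its runs; inactive means the rest.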

SMILES	CDC25B CDK2 inh	TAR Tat displ
Cc1cccc(Oc2coc3cc(OC(=O)c4ccncc4)ccc3c2=O)c1	-1.2	1.2
CCOC(=O)c1csc(-n2nc(C(C)(C)C)cc2C(F)(F)F)n1	·	1.4
COc1ccc2cc3c(nc2c1)N(S(=O)(=O)c1ccc(C(C)C)cc1)CC3	-1.2	-1.9
CCc1nc(SCC(=O)Nc2nc3ccccc3s2)c2c(=O)n(C)c(=O)n(C)c2n1	·	0.39
S=C(NCc1cccs1)NNc1c(Cl)cncc1Cl	-0.27	·
CC1CCCCN1CCNc1ncnc2onc(-c3ccc(F)cc3)c12 (configuration not stated)	·	-1.7
O=C(NCc1ccc2c(c1)OCO2)c1cc(-c2cccnc2)nc2ccc(Cl)cc12	·	-0.39
Cc1ccc(CN[C@H]2CS(=O)(=O)C[C@@H]2S(=O)(=O)c2cccs2)cc1	0.06	-2.8
Cn1c(SCC(=O)c2ccc(Cl)cc2)nnc1-c1cnccc1C(F)(F)F	-2.2	·
Cc1ccc(-c2cc(Nc3ccccc3F)nc(C)n2)cc1	0.82	0.6
COc1ccc(-c2nc(=S)c3c([nH]2)Oc2c(cccc2OC)C3)cc1OC	0.82	1.6
Cc1nc(-n2cccc2)sc1C(=O)NC1CCCC(C)C1C (configuration not stated)	-2.4	5.5

Quoted from the listing.
`COc1ccc2cc3c(nc2c1)N(S(=O)(=O)c1ccc(C(C)C)cc1)CC3` in CDC25B CDK2 inh is entered as -1.2
`Cc1cccc(Oc2coc3cc(OC(=O)c4ccncc4)ccc3c2=O)c1` in TAR Tat displ is entered as 1.2
`CCc1nc(SCC(=O)Nc2nc3ccccc3s2)c2c(=O)n(C)c(=O)n(C)c2n1` in TAR Tat displ is entered as 0.39

(more compounds)
SMILES	CDC25B CDK2 inh	TAR Tat displ
COc1ccc(-c2noc(C3CCCCC3)n2)cc1	0.79	-0.1
CC1Sc2ccc(S(=O)(=O)N3CCN(c4cccc(Cl)c4)CC3)cc2NC1=O (configuration not stated)	·	2.8
CCc1ccc(-c2[nH]c3c(c2-c2sc(C)c(C(=O)OC)c2O)c(=O)[nH]c(=O)n3C)cc1	-2.2	-5.7
CCCn1cc(S(=O)(=O)c2ccc(F)cc2)c(=O)c2cc(F)ccc21	-0.9	-1.5
Cc1ccc(/C(O)=C2\C(=O)C(=O)N(CCCC(=O)O)C2c2ccccc2)cc1 (configuration not stated)	0.39	0.67
Cc1ccc(C2OC3(C(=O)c4ccccc4C3=O)C3C(=O)N(c4cccc(Cl)c4)C(=O)C23)cc1 (configuration not stated)	0.25	-0.37
CCSCCOC(=O)C1=C(C)N(C)C(=O)NC1c1cc(Cl)c(O)c(OC)c1 (configuration not stated)	-1.1	·
C1CCC2(CC1)OCC(CN1CCOCC1)O2 (configuration not stated)	0.15	·
O=C(Nc1ccc2c(c1)Sc1ccccc1C(=O)N2C1CCCC1)c1ccccn1	·	0.55
CC(C)(C)c1cc(C(=O)N/N=C/c2cc(Br)cc(Br)c2O)n[nH]1	-1.6	·
CN(CC(=O)NC1CCCc2ccccc21)S(=O)(=O)c1cc2c(cc1Cl)NC(=O)CO2 (configuration not stated)	·	-1.5
O=S(=O)(c1ccc2c(c1)CCN2)N1CCCC1	·	1.7
O=C(Nc1ccc(OCc2ccccc2)cc1)Nc1ccc2ccccc2n1	-0.68	·
Cn1c2ccc(Cl)cc2c2cc(Cl)ccc21	-0.37	·
Cn1nc(C(=O)NCc2ccc3c(c2)OCO3)c2c1-c1ccsc1CC2	·	-0.5
O=C(NCCCN1CCOCC1)c1cnc2sc(N3CCCC3)nn2c1=O	·	1.5
CCCCc1cc(=O)oc2cc(OCC(=O)c3ccc(OC)cc3)ccc12	-7.2	·
O=C(CSc1ccc2nnc(-c3ccc(F)cc3)n2n1)c1ccccc1	-5	·
CCCN(CCC)C(=O)CSc1nc2ccncc2[nH]1	0.63	1.1
COc1cc(NC(=O)c2nn(C)c3c2CS(=O)(=O)c2ccccc2-3)cc(OC)c1	-0.99	-0.79
Cc1cc(C2C(=O)c3ccccc3C2=O)nc2ccccc12	5	-0.96
CSc1nsc(SC)c1C(=O)NC(=O)OCc1ccccc1	-1.5	·
Cc1ccc2scc(N3CCN(c4ccc(F)cc4)CC3)c(=O)c2c1	·	0.7
Oc1ccccc1C1=NN2C(C1)c1ccccc1OC2c1ccncc1 (configuration not stated)	0.13	-0.41

Among those listed so far, 2 have a CF3 group:
SMILES	CDC25B CDK2 inh	TAR Tat displ
CCOC(=O)c1csc(-n2nc(C(C)(C)C)cc2C(F)(F)F)n1	·	1.4
Cn1c(SCC(=O)c2ccc(Cl)cc2)nnc1-c1cnccc1C(F)(F)F	-2.2	·

The listing continues.
SMILES	CDC25B CDK2 inh	TAR Tat displ
CN1C(=O)Cc2cc(NS(=O)(=O)c3ccccc3)ccc21	·	-0.84
Cc1nc2scc(C)n2c(=O)c1S(=O)(=O)N1CCN(C2CCCCC2)CC1	-0.46	1.1
COc1ccccc1/C=C/c1nc(C#N)c(N2CCCCC2)o1	-1.5	-0.87
Cc1cc(OCc2nc(-c3ccccn3)no2)cc(C)c1Cl	-1.2	2.7
O=C(O)c1ccccc1C(=O)N1CCN(Cc2ccncc2)CC1	-1.8	·
CCOC(=O)c1cnc(SCc2nc(-c3ccccc3C)oc2C)nc1N	·	0.84
CNC(=O)N1c2ccccc2NC2=C(C(=O)CC(C)(C)C2)C1c1cccs1 (configuration not stated)	·	2.2
CC1(C)CC(=O)C2=C(C1)Nc1[nH]c(=O)[nH]c(=O)c1C2c1ccc2c(c1)OCO2 (configuration not stated)	-0.65	-0.29
O=C(NC1CCCCC1)C1CCN(c2ccccc2)C1=O (configuration not stated)	·	-0.98
NNC(=O)Cc1ccccc1	-0.84	·
Cc1cc(C(=O)Nc2ccccc2N2CCCCC2)c(C)o1	-1.9	·
CCCCNC(=O)Cn1nc(C(F)(F)F)c2c1CCC2	-0.57	-0.6
O=C(C1CCN(c2nc3cccnc3s2)CC1)N1CCOCC1	·	-0.23
O=C(NCc1c(Cl)cccc1Oc1ccccc1)c1ccccc1	-0.1	·
COCCCNc1ncnc2c1nc1n2CCCCC1	·	0.53
CC1CCCN(C(=O)C2CCN(S(=O)(=O)c3ccc4c(c3)NC(=O)CO4)CC2)C1 (configuration not stated)	·	1.1
CC(C)(C)C(=O)Nc1ccccc1OCc1cc(=O)n2ccccc2n1	·	0.4
CCOC(=O)N1CCC(NS(=O)(=O)c2ccc3oc(=O)c4ncn(C)c4c3c2)CC1	·	1.1
O=C(COCc1cc(-c2ccc3c(c2)OCO3)on1)N1CCOCC1	·	-0.44
Cn1cc(S(=O)(=O)N2CCc3ccccc32)cc1C(=O)NCC1CCCO1 (configuration not stated)	0.07	1.1
CC1(C)Cc2c(sc3[nH]c(=S)n(-c4ccc(Br)cc4)c(=O)c23)CO1	-2.2	·
O=C(Cc1cccs1)N1CCCC1c1ccco1 (configuration not stated)	-0.47	1.9
CC12CC3CC(C)(C1)CC(OCCNC(=O)c1cc4c(s1)-c1ccccc1OC4)(C3)C2	-2.2	·
NC(=O)CN1C(=O)N(c2ccc(Cl)cc2)S(=O)(=O)c2ccccc21	-0.05	·
CCOC(=O)c1noc2ncnc(N(Cc3ccco3)C3CCCC3)c12	·	0.3
COc1ccc(NC(=O)N2CCC3(CC2)Nc2cc(F)ccc2-n2cccc23)c(OC)c1	·	-1.3
Cc1ccc(N2C(=O)c3ccncc3C2=O)cc1Cl	·	0.86
CCS(=O)(=O)N1CCC2(CC1)OC(=O)C(C)=C2C(=O)Nc1cc(Cl)c(OC)cc1OC	·	0.14
Cc1cc(-c2ccc(C(C)C)c(S(=O)(=O)NCCN3CCc4ccccc4C3)c2)on1	·	-1.3
Cc1cc(O)cc(C)c1Cl	·	1.3
CN(C)CCNC(=O)c1ccc2c(=O)n3c(nc2c1)CCCCC3	-0.46	1.9
Cc1nn(-c2ccccc2)c2c1C1(C)CC(C)(O2)c2c(C)nn(-c3ccccc3)c2O1	-2.5	-3
COC(=O)C1=C(C)NC(=S)NC1c1ccc(OC)cc1OC (configuration not stated)	-1.8	·
O=C(c1ccco1)N1CCN(c2ncnc3onc(-c4ccc(F)cc4)c23)CC1	·	0.07
C=CCNc1ncnc2c1nnn2C	·	1.6
Cc1oc2ncnc(N3CCOCC3)c2c1C(=O)N1CCc2ccccc21	·	2.2

Next part (2 carried over from the part before).
SMILES	CDC25B CDK2 inh	TAR Tat displ
C=CCNc1ncnc2c1nnn2C	·	1.6
Cc1oc2ncnc(N3CCOCC3)c2c1C(=O)N1CCc2ccccc21	·	2.2
CCn1cc(C(=O)O)c(=O)c2cc(F)c(N3N=NC4CCCCCC43N3CCOCC3)cc21 (configuration not stated)	-0.52	·
O=C1CC(c2cccc(Oc3ccccc3)c2)C2=C(CC(c3cccs3)CC2=O)N1 (configuration not stated)	-0.45	1.1
Cc1ccc(CSc2nc3c(c(=O)[nH]2)C(c2cc(F)ccc2F)CC(=O)N3)cc1 (configuration not stated)	-0.04	0.32
CCOc1cc(C2CC(=O)NC3=C2C(=O)CC(C)(C)C3)ccc1O (configuration not stated)	-1	1.1
Cn1c(=O)c2c(-c3cccc(Br)c3)n(C(C)(C)C)cc2n(C)c1=O	-0.06	2.1
O=c1scc(-c2ccc(Cl)cc2)s1	-0.09	-0.79
CN(C)S(=O)(=O)c1ccc(C(=O)OCCCN=C2NS(=O)(=O)c3ccccc32)cc1	-0.27	-0.79
O=C1CC(NC2CCN(c3ccc(C(F)(F)F)cn3)CC2)C(=O)N1c1ccc(F)cc1 (configuration not stated)	0.27	0.34
COc1ccc(C2=NS(=O)(=O)N(C)C(C(=O)Nc3sc4c(c3C#N)CCC4)=C2)cc1OC	-2.5	2.3
CCOc1ccc2nc(NC(=O)CC(C)C)sc2c1	·	-0.34
CC(=O)/C(C#N)=C(\N)SCc1csc(-c2ccc(Cl)cc2)n1	-0.58	·
CCn1c2c(c3cc(F)ccc31)CCCC2=O	-1.4	1.1
COc1ccc(NC(=O)Cn2c(=O)n(CC3CCCO3)c(=O)c3cc(OC)c(OC)cc32)cc1 (configuration not stated)	-1.1	-0.71
C=CCN(C(=O)CSc1nc2[nH]ncc2c(=O)n1-c1cccc2ccccc12)c1ccccc1	-3.5	1.8
CC(=O)N1c2nc(-c3ccccc3C)nn2C2(CCCCC2)[C@@H]2CCCC[C@@H]21	-0.49	0.03
Cc1ccc(Cl)cc1-n1nnc(-c2ccccc2)n1	-1.3	1.8
CC(C)Cc1nc2cccnc2n1C1CCN(S(=O)(=O)c2ccc3c(c2)oc(=O)n3C)CC1	·	0.61
N#CC1c2ccccc2C=CN1C(=O)c1ccccc1 (configuration not stated)	-0.42	1.6
CCCCN(CC)C(=O)c1cc2c(=O)oc3ccc(C)cc3c2s1	0.58	1.3
O=C(NCc1cccs1)c1cnn2c1NC(c1ccc(Br)cc1)CC2C(F)(F)F (configuration not stated)	1.6	0.21
O=C(CSc1ncc(S(=O)(=O)c2cccc(Cl)c2)c(=O)[nH]1)Nc1cccc(F)c1	-0.34	1.5
CCOC(=O)N1CCC(N/C=C(\C#N)S(=O)(=O)C(C)C)CC1	1	·
Cc1nc(Oc2ccc3c(C)cc(=O)oc3c2)c2c3c(sc2n1)CCC3	-1	·
COc1ccc(C2NC(=O)NC(O)(C(F)(F)F)C2C(=O)c2ccc(Cl)cc2)cc1OC (configuration not stated)	-0.6	·

One compound at a time, from the list above.
CCSCCOC(=O)C1=C(C)N(C)C(=O)NC1c1cc(Cl)c(O)c(OC)c1 (configuration not stated) is listed as CDC25B CDK2 inh = -1.1; TAR Tat displ = ·
CCOC(=O)N1CCC(N/C=C(\C#N)S(=O)(=O)C(C)C)CC1 is listed as CDC25B CDK2 inh = 1; TAR Tat displ = ·
O=C1CC(c2cccc(Oc3ccccc3)c2)C2=C(CC(c3cccs3)CC2=O)N1 (configuration not stated) is listed as CDC25B CDK2 inh = -0.45; TAR Tat displ = 1.1

New compounds follow
SMILES	CDC25B CDK2 inh	TAR Tat displ
Cc1ccccc1-c1noc(-c2nnn(-c3ccc(Br)cc3F)c2N)n1	·	-1.2
O=C(NCc1cccnc1)c1cc(-c2cccc(Br)c2)nc2ccccc12	-1.6	·
O=C(C1CCC(CNc2c(N3CCCCC3)c(=O)c2=O)CC1)N1CCc2ccccc2C1 (configuration not stated)	-1	1.3
Cc1cn2c(=O)cc(COC(=O)CSc3ccc(Cl)cc3)nc2s1	·	-0.28
Cc1ccc(C2=CC(c3cccc(Cl)c3)n3nc(CCCO)nc3N2)cc1 (configuration not stated)	-1.4	·
Cc1nn(-c2ccccc2)nc1C(=O)NNC(=O)CSCc1cccc2ccccc12	0.3	·
Cc1cc(=O)[nH]c(N2CCOCC2)n1	-1.1	·
O=C(NCc1ccco1)c1ccc2c(c1)N(Cc1ccc(F)cc1)C(=O)CS2=O (configuration not stated)	-0.69	·
COC(=S)SC/C(=N\O)c1ccc([N+](=O)[O-])cc1	0.37	·
O=C(CN1C(=O)C2(OCCO2)c2cc(Br)ccc21)c1ccccc1C(F)(F)F	-0.21	·
Cc1[nH]c(=O)[nH]c(=O)c1S(=O)(=O)N1CCN(c2nc3ccccc3n3cccc23)CC1	4.1	-0.16
O=c1c(Cc2ccccc2O)c(O)nc2n1CCCS2	-0.3	0.72
Oc1ccc2ccccc2c1CN1CCc2ccccc2C1	-0.9	0.88
CCCNC(=O)c1c(C)[nH]c(C(=O)OCC)c1C	-1.6	·
CC1CCN(CCCNS(=O)(=O)c2ccc(-c3ccc(=O)[nH]n3)s2)CC1	·	0.45
CN(c1ccccc1)S(=O)(=O)c1ccc(NC(=O)c2nn(-c3ccc(F)cc3)ccc2=O)cc1	-1.5	0.09
CCC(=O)N1CCc2cc(Br)cc(S(=O)(=O)NCCN3CCCCC3C)c21 (configuration not stated)	3.4	·
CCC(=O)OCCNc1ccc2noc3c2c1C(=O)c1ccccc1-3	0.16	-11
Cc1ccc(S(=O)(=O)c2cnc3ccccc3c2N2CCOCC2)cc1C	-0.5	-1.8
O=C(COCc1cc(-c2ccc3c(c2)OCO3)on1)N1CCN(C(=O)c2ccco2)CC1	·	-0.29

Source: PubChem BioAssay (Center for Chemical Genomics, University of Michigan)
